total CFTR: compounds raising F508del-CFTR protein level – cell-based, HeLa F508del-CFTR, immunofluorescence, viability, primary screen (AID 1224863); calls, or highest fold increase where a dose series was run; HeLa F508del-CFTR, immunofluorescence total CFTR, 24 h; by the record results were divided by relative cell number; some inactives read as strong as hits; hit rate 0.1% among 10,000; in the data nearly all actives have a first-pass fold increase above 1.5; a few of its hits are not listed in these tables;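 also: total CFTR protein by anti-CFTR immunofluorescence in fixed cells; first pass at 25 µM or 10 µg/mL by library and series up to twice that; 1 = untreated cells; first-pass hits also needed half or more of the cells alive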
total CFTR fold 25 µM: second read-out of total CFTR, no call of its own (marks repeat the call); fold increase; measured here: primary screen single dose 25 uM; library dosed in µM
total CFTR fold 10 ug/mL: further read-out of total CFTR, marked with its call; fold increase; measured here: primary screen 10 ug/mL
total CFTR viability 25 µM: second read-out of total CFTR, no call of its own (marks repeat the call); viability, %; measured here: primary viability 25 uM; library dosed in µM;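 0% = killed and 100% = untreated cells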
total CFTR viability 10 ug/mL: recorded beside total CFTR, whose call it bears; viability, %; measured here: primary viability 10 ug/mL;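 0% = killed and 100% = untreated cells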
* = called active by the depositor; i = inactive; . = not tested or not shown; & = joins results of further samples.

SMILES | total CFTR | total CFTR fold 10 ug/mL | total CFTR viability 10 ug/mL | others
N#Cc1ccc(CS(=O)(=O)N2CCCCCCC2)cc1 | i | 1 | 95
Cc1cccn2cc(CSc3ncnc4ccsc34)nc12 | i | 0.96 | 86
Cc1cc(NC(=O)CCNC(=O)NC2CCCCC2)no1 | i | 1.3 | 105
CCOC(=O)C1=C(CC)Nc2ccccc2N=C1NC(=O)C12CC3CC(CC(Cl)(C3)C1)C2 | i | 1.1 | 85
Cc1c(/C=C2\N=C(C34CC5CC(CC(C5)C3)C4)OC2=O)cc(C#N)n1C | i | 0.98 | 95
C1=CC2CC1CC2CNCc1ccc2c(c1)OCO2 (stereo unspecified) | i | 0.91 | 105
Cc1noc(CN)n1 | i | 1 | 105
O=C(O)c1cc(O)c2c(c1)[C@@H]([C@H]1c3cc(C(=O)O)cc(O)c3C(=O)c3c(O[C@H]4O[C@H](CO)[C@@H](O)[C@H](O)[C@H]4O)cccc31)c1cccc(O[C@H]3O[C@H](CO)[C@@H](O)[C@H](O)[C@H]3O)c1C2=O | i | . | . | total CFTR fold 25 µM=0.97;total CFTR viability 25 µM=87
COc1ccc(OC)c2c1CN(c1nnnn1-c1ccccc1)CC2O (stereo unspecified) | i | 1.1 | 111
Cn1c(SCC(=O)NCc2ccco2)nc2ccsc2c1=O | i | 1.1 | 95
O=C(O)C(O)[C@H](O)[C@H](O)[C@H](O)[C@H](O)CO (stereo partly specified) | i | . | . | total CFTR fold 25 µM=0.99;total CFTR viability 25 µM=95
Cc1ccc(-c2nc(CSc3nnnn3C3CC3)cs2)o1 | i | 1.1 | 99
CN(Cc1ccc(Br)cc1)S(=O)(=O)c1cc(Cl)ccc1C#N | i | 0.97 | 89
CC1CCC2(CC1)NC(=O)N(CC(C#N)CCC#N)C2=O (stereo unspecified) | i | 0.94 | 88
OC(CCN1CCCC1)(c1ccccc1)C1CCCCC1 (stereo unspecified) | i | . | . | total CFTR fold 25 µM=1.1;total CFTR viability 25 µM=103
CC1=C(C(=O)c2ccccc2)C(c2ccc(C(C)C)cc2)NC(=O)N1 (stereo unspecified) | i | 0.99 | 89
Cc1nnc(SCC(=O)N2CCN(S(C)(=O)=O)CC2)n1C1CC1 | i | 0.95 | 90
Cc1cc(C(=O)CSc2n[nH]c(=O)n2C2CC2)c(C)n1Cc1ccco1 | i | 0.98 | 110
OC1CCN(Cc2ccc(-n3cccn3)cc2)CC1 | i | 1.1 | 92
CC1CN(S(=O)(=O)c2ccc(Cl)cc2C(F)(F)F)CCO1 (stereo unspecified) | i | 0.94 | 84
Nc1nccnc1C(=O)NC1CCS(=O)(=O)C1 (stereo unspecified) | i | 1.1 | 88
CN(Cc1ccc(C(F)(F)F)cc1)CN1C(=O)C(=O)c2ccccc21 | i | 1.1 | 107
N#Cc1c(N)cc(N)nc1SCc1nc(-c2cccc([N+](=O)[O-])c2)no1 | i | 0.97 | 103
CC(C)(CNCC(O)COc1ccccc1)CNCC(O)COc1ccccc1 (stereo unspecified) | i | 1.1 | 84
CC(CNC(=O)C1CCC1)N1CCc2sccc2C1 (stereo unspecified) | i | 1.1 | 100

Overlap with the part before: 5 entries; new compounds follow.
SMILES | total CFTR | total CFTR fold 10 ug/mL | total CFTR viability 10 ug/mL | others
Nc1nccnc1C(=O)NC1CCS(=O)(=O)C1 (stereo unspecified) | i | 1.1 | 88
CN(Cc1ccc(C(F)(F)F)cc1)CN1C(=O)C(=O)c2ccccc21 | i | 1.1 | 107
N#Cc1c(N)cc(N)nc1SCc1nc(-c2cccc([N+](=O)[O-])c2)no1 | i | 0.97 | 103
CC(C)(CNCC(O)COc1ccccc1)CNCC(O)COc1ccccc1 (stereo unspecified) | i | 1.1 | 84
CC(CNC(=O)C1CCC1)N1CCc2sccc2C1 (stereo unspecified) | i | 1.1 | 100
CC(C)(C)C(=O)NCC1CCCCC1 | i | 0.98 | 100
c1cncc(-c2nnn(-c3nc(-c4cccs4)nc4ccccc34)n2)c1 | i | 0.89 | 89
CSCC[C@H](NC(=O)[C@H](Cc1c[nH]c2ccccc12)NC(=O)[C@H](C)NC(=O)OC(C)(C)C)C(=O)N[C@@H](CC(=O)O)C(=O)N[C@@H](Cc1ccccc1)C(N)=O | i | . | . | total CFTR fold 25 µM=1.2;total CFTR viability 25 µM=80
CN(Cc1ccc(Cl)s1)CN1C(=O)C2CC=CCC2C1=O (stereo unspecified) | i | 0.96 | 118
CCOC(=O)c1c(-c2csc(NCCOC)n2)c(C)n(CC)c1C | i | 0.95 | 98
CN(Cc1ccsc1)C(=O)Cn1cnc2sc3c(c2c1=O)CCCC3 | i | 0.9 | 97
CC[C@H]1OC(=O)[C@H](C)[C@@H](O[C@H]2C[C@@](C)(OC)[C@@H](O)[C@H](C)O2)[C@H](C)[C@@H](O[C@@H]2O[C@H](C)C[C@H](N(C)C)[C@H]2O)[C@](C)(O)C[C@@H](C)[C@@H]2N[C@@H](COCCOC)O[C@H]([C@H]2C)[C@]1(C)O | i | . | . | total CFTR fold 25 µM=1.1;total CFTR viability 25 µM=105
O=C(C1=CN2CCS(=O)(=O)N=C2C=C1)N1CCCC1c1ccc2c(c1)OCCO2 (stereo unspecified) | i | 1.1 | 86
CC1CN(S(=O)(=O)N(CCc2ccccc2)Cc2ccccc2)CC(C)O1 (stereo unspecified) | i | 0.94 | 83
COc1ccnc(CS(=O)c2nc3ccc(OC(F)F)cc3[nH]2)c1OC (stereo unspecified) | i | . | . | total CFTR fold 25 µM=1.1&1;total CFTR viability 25 µM=84&95
Ic1ccccc1OCc1nc(-c2ccco2)no1 | i | 0.9 | 88
OC1CCCN(c2ncnc3scc(-c4ccccc4)c23)C1 (stereo unspecified) | i | 0.92 | 90
O=C(NC1CCCCC1)C1=CC=CN2CCS(=O)(=O)N=C12 | i | 0.93 | 98
N#Cc1ccsc1NC(=O)c1ccsc1 | i | 0.95 | 87
CCOC(=O)C(C)N (stereo unspecified) | i | 0.93 | 100
O=C(CCN1C(=O)CSc2ccccc21)Nc1ccc2c(c1)OC(F)(F)O2 | i | 0.86 | 91
O=C(COC(=O)c1ccc2c(c1)C(=O)N(C1CCCCC1)C2=O)c1ccc2c(c1)OCO2 | i | 1.1 | 96
CC1CN(C(=O)C(NC(=O)C2CCCCC2)C(C)C)CC(C)O1 (stereo unspecified) | i | 0.97 | 101
NC(=O)c1ccc(S(=O)(=O)N2CCN(C(=O)C3CCCC(C(F)(F)F)C3)CC2)o1 (stereo unspecified) | i | 0.98 | 86
CCN(CC)S(=O)(=O)c1ccc2nnc(SC3CCCc4ccccc43)n2c1 (stereo unspecified) | i | 0.86 | 92
Brc1ccccc1Oc1ccncc1 | i | 1.1 | 90
Cc1onc(-c2ccccc2)c1C(=O)NC1C(=O)N2[C@@H]1SC(C)(C)[C@@H]2C(=O)O (stereo partly specified) | i | . | . | total CFTR fold 25 µM=1.1;total CFTR viability 25 µM=100
Nc1ncnc2c1ncn2[C@@H]1O[C@H](CO)[C@@H](O)[C@@H]1O | i | . | . | total CFTR fold 25 µM=0.95&1.1&1.1;total CFTR viability 25 µM=101&94&92
CNC(=O)NC(=O)C(C)N1CCN(C(=O)CC2CCCC2)CC1 (stereo unspecified) | i | 1.1 | 101
Cc1cc(N)nc(SCCN2C(=O)CCC2=O)n1 | i | 0.93 | 96

For convenience, part of the list above.
SMILES | total CFTR | total CFTR fold 10 ug/mL | total CFTR viability 10 ug/mL | others
N#Cc1ccc(CS(=O)(=O)N2CCCCCCC2)cc1 | i | 1 | 95
Cc1cccn2cc(CSc3ncnc4ccsc34)nc12 | i | 0.96 | 86
Cc1cc(NC(=O)CCNC(=O)NC2CCCCC2)no1 | i | 1.3 | 105
CCOC(=O)C1=C(CC)Nc2ccccc2N=C1NC(=O)C12CC3CC(CC(Cl)(C3)C1)C2 | i | 1.1 | 85
Cc1c(/C=C2\N=C(C34CC5CC(CC(C5)C3)C4)OC2=O)cc(C#N)n1C | i | 0.98 | 95
C1=CC2CC1CC2CNCc1ccc2c(c1)OCO2 (stereo unspecified) | i | 0.91 | 105
Cc1noc(CN)n1 | i | 1 | 105

The results go on:
SMILES | total CFTR | total CFTR fold 10 ug/mL | total CFTR viability 10 ug/mL | others
NC(=O)N1c2ccccc2CC(=O)c2ccccc21 | i | . | . | total CFTR fold 25 µM=1.1&1.2;total CFTR viability 25 µM=91&79
Cc1noc(C)c1CCC(=O)Nc1nc2c(s1)CCC2 | i | 1 | 97
CCC(C)(C)NC(=O)Cc1c(C)noc1C | i | 0.98 | 101
C/C=C(/C#N)c1ccc2c(c1)OCO2 | i | 0.88 | 84
C[C@H]1[C@H](NC(=O)/C(=N\OC(C)(C)C(=O)O)c2csc(N)n2)C(=O)N1S(=O)(=O)O | i | . | . | total CFTR fold 25 µM=1.1&1;total CFTR viability 25 µM=111&106
O=C1C(=O)N(C23CC4CC(CC(C4)C2)C3)C(=O)N1Cc1cccc(Cl)c1 | i | 1.1 | 96
O=S(=O)(O)CCCS(=O)(=O)O | i | . | . | total CFTR fold 25 µM=1;total CFTR viability 25 µM=97
CC(=O)Nc1cc(NC(C)=O)cc(C(=O)NC2=NCCS2)c1 | i | 1 | 75
CS(=O)(=O)c1ccc([C@@H](O)[C@@H](CO)NC(=O)C(Cl)Cl)cc1 | i | . | . | total CFTR fold 25 µM=1.2;total CFTR viability 25 µM=93
O=c1cc(CSC2=NCCS2)[nH]c(=O)[nH]1 | i | 1 | 95
O=C(O)CCCCC1SCC2NC(=O)NC21 (stereo unspecified) | i | . | . | total CFTR fold 25 µM=1.3;total CFTR viability 25 µM=107
CC(C)Nc1nnc(SCc2nnc(C(C)(C)C)o2)s1 | i | 1 | 92
O=C1OCCC1N1CCN(Cc2ccc(-c3ccc(Br)cc3)s2)CC1 (stereo unspecified) | i | 0.81 | 74
NC(CO)C(=O)NNCc1ccc(O)c(O)c1O (stereo unspecified) | i | . | . | total CFTR fold 25 µM=1&1&1;total CFTR viability 25 µM=81&92&99
Cn1c(Sc2ccc3nnnn3n2)nnc1-c1ccc(C(C)(C)C)cc1 | i | 1 | 82
Cn1c(-c2ccccc2)c(C(=O)CN2c3cccc4cccc(c34)S2(=O)=O)c2ccccc21 | i | 0.97 | 92
O=C(NCCc1ccc2c(c1)OCCO2)NCc1ccc2c(c1)OCO2 | i | 0.98 | 90
O=[N+]([O-])c1ccc(NCc2ccnc(N3CCCC3)c2)nc1 | i | 1 | 79
Cc1ccc2c(COc3cccc4c3CCC4=O)cc(=O)oc2c1 | 1.3 | 1.7 | 84
Cc1csc(/C(C#N)=C\c2ccc(OCc3c(C)noc3C)cc2)n1 | i | 0.88 | 80
O=C(OCc1cc(Cl)c2c(c1)OCO2)c1ccco1 | i | 0.99 | 90
CS(=O)(=O)Cc1ccc(C(=O)OCc2nc(COc3ccc(F)cc3)no2)cc1 | i | 0.93 | 84
CCC(c1nnc(SCC(=O)NC23CC4CC(CC(C4)C2)C3)n1C1CCCCC1)N(C)C (stereo unspecified) | i | 1.1 | 89
Cc1cc(C(=O)CN2C(=O)NC(Cc3c[nH]c4ccccc34)C2=O)c(C)n1C1CCS(=O)(=O)C1 (stereo unspecified) | i | 0.97 | 93
Cc1n[nH]c(=O)c2c(NC(=O)CN3CCCCC3)oc(C)c12 | i | 1 | 95
Cn1c(=O)c2ccccc2n2c(COc3ccc(C(=O)c4ccccc4)cc3)nnc12 | i | 1.1 | 103
CN(C)S(=O)(=O)N1CCN(C(=O)Nc2cc(C(F)(F)F)ccc2N2CCCC2)CC1 | i | 0.94 | 97
CN1CCN(C2=Nc3cc(Cl)ccc3Nc3ccccc32)CC1 | i | . | . | total CFTR fold 25 µM=1&1&0.92;total CFTR viability 25 µM=74&87&88

3 compounds out of the list, sorted by SMILES length, largest number first:
SMILES | total CFTR | total CFTR fold 10 ug/mL | total CFTR viability 10 ug/mL | others
O=C(OCc1cc(Cl)c2c(c1)OCO2)c1ccco1 | i | 0.99 | 90
NC(=O)N1c2ccccc2CC(=O)c2ccccc21 | i | . | . | total CFTR fold 25 µM=1.1&1.2;total CFTR viability 25 µM=91&79
O=S(=O)(O)CCCS(=O)(=O)O | i | . | . | total CFTR fold 25 µM=1;total CFTR viability 25 µM=97

Not all compounds are listed, so the mix of outcomes need not match the whole.
